CSC inhib = cancer stem cell viability inhibitors, primary screen, luminescence | cancer stem cell-like cells viability | inhibition, % at 7.5 µM | 1.1% of 300,000 active;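 active = mean at 75% or more and at least half the replicates too; tested in HMLE shEcad cells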;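 also: 0% = median of negative and 100% = median of positive control wells; the first replicate is given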
Rce1 inhib = yeast Rce1p protease inhibitors, primary screen, biochemical, fluorescence, cell-free homogeneous; AID 2563, 2010; yeast membranes, quenched prenylated peptide cleavage fluorescence; 0.27% of 290,000 active; CAAX prenyl protease 2 (Saccharomyces cerevisiae (strain ATCC 204508 / S288c)), Q03530; calls only;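 active = fall in fluorescence gain of 50% or more versus controls, with final raw signal at or below 3038400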;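 also: plate controls were neutral control wells for no effect and wells lacking membranes for full effect; tested at 10 µM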
HIV Env fusion = inhibitors of HIV-1 Env-driven cell-cell fusion, primary screen, HeLa-JRFL effector, CEM21 target cells, luciferase. 1.1% of 360,000 active. inhibition, % at 12.3 µM. AID 651610, 2012;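 active = mean replicate inhibition score of at least 50 and every replicate individually at or above 50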;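 also: 0% = plate neutral controls and 100% = maraviroc near 300 nM; one replicate is shown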
PABP FP inh = PABP poly(A) RNA binding inhibitors, primary screen, biochemical, fluorescence polarization, uHTS; inhibition, % at 35 µM; 1% of 290,000 active;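 active = 50% or more with normal probe brightness, or confirmed in later tests; about a fifth of its hits are not listed in these tables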;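 also: calls also rest on retests at 20 µM and on dose response follow-up; controls were probe without protein and protein plus probe with vehicle; some compounds called inactive have numbers as strong as hits; many hits fall short of the cut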
Target sequence (P11940 whole entry, looked up): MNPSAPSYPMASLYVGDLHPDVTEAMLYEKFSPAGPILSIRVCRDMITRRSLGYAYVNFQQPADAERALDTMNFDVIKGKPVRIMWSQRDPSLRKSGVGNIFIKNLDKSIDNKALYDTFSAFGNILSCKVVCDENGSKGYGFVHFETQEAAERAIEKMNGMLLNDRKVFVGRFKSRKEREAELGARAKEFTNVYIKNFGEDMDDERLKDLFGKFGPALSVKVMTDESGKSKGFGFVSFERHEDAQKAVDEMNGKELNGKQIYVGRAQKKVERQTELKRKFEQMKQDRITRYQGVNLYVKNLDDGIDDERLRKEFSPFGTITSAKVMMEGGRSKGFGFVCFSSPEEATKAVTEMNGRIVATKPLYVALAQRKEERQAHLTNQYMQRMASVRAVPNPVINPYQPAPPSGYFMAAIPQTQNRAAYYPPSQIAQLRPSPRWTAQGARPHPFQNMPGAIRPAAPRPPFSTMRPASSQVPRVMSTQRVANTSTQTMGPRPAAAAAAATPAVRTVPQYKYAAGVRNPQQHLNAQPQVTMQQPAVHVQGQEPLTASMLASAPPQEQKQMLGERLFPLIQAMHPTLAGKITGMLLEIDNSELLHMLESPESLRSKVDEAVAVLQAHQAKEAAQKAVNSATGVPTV
MT1-MMP act inh = blockers of MT1-MMP proenzyme processing, primary screen, HT1080 RFP-PRO-GFP cells, GFP/RFP fluorescence | GFP/RFP ratio change, % at 20 µM | Matrix metalloproteinase-14 (Homo sapiens), P50281 | GFP/RFP ratio fluorescence, overnight; percent of plate control window, DMSO zero | 0.061% of 360,000 active | AID 651647, 2012;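 active = GFP/RFP ratio change of at least 30% with cell ATP level not reduced by more than half and red fluorescence within 50% of control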; also: strong numbers were not always called active
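Assay system: HT1080 RFP-PRO-GFP cells. Benchmarks: DMSO vehicle wells and RFP-L50D-GFP reporter cell wells. Times: overnight cell settling, then overnight compound exposure, 37 °C, 5% CO2. Compound: 20 µM single dose, 1% DMSO. Read-out basis: GFP/RFP fluorescence ratio.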
eIF4H inh = human eIF4H binding inhibitors, primary screen, translation initiation inhibitor project, biochemical, uHTS, fluorescence polarization; eIF4H fluorescence polarization binding assay; inhibition, % at 35 µM; 0.94% of 290,000 active; AID 2012, 2009;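 active = 50% or more with normal probe brightness, or confirmed in later tests; about a fifth of its hits are not listed in these tables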;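 also: calls also rest on retests at 20 µM and on dose response follow-up; 0% = protein and probe with vehicle and 100% = probe without protein; strong numbers were not always called active; many hits fall short of the cut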
Yeast UUG start = modulators of yeast start codon fidelity, primary screen, whole organism, S. cerevisiae, single point, plate reader; AID 602363, 2012; S. cerevisiae UUG-firefly luciferase reporter, luminescence/redox ratio; activity score, % at 18.7 µM; 0.13% of 350,000 active;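 active = replicate mean at a twofold rise or more, about +100% in these data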;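 also: firefly luciferase made from a UUG start codon reports start codon fidelity; reporter light over untreated wells divided by growth signal over untreated wells; some hits fall short of that in this replicate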
eIF4H inh retest = recorded beside eIF4H inh, whose call it bears; inhibition, %; compound at 20 µM; confirmation average;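 mean of two retest wells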
PABP FP inh retest = recorded beside PABP FP inh, whose call it bears; inhibition, %; compound at 20 µM; confirmation repeats;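 mean of two retest wells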
MT1-MMP act inh RFP = also measured in MT1-MMP act inh; calls as there; RFP signal change, %; measured here: RFP expression control read;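 0 = vehicle wells; hits needed this value within 50% of zero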
* marks the source's active call; other numbers are inactive results; i = inactive; / = no result given; & = joins results of further samples.

SMILES	CSC inhib	Rce1 inhib	HIV Env fusion	PABP FP inh	MT1-MMP act inh	MT1-MMP act inh RFP	eIF4H inh	Yeast UUG start	others
CN(CC(=O)Nc1ccccc1Cl)C(=O)c1ccc(Cl)c(S(=O)(=O)N2CCCCCC2)c1	-13	/	29	/	4	-10	/	-1
Cc1ccc(NC(=O)c2cccs2)cc1	6	i	/	-12	4	2	-6	-13
Cc1cccc(NC(=O)Cc2ccc(-c3ccccc3)cc2)n1	-4	i	-6	-3	-4	-6	-5	-13
CC(C)CNC(=O)COC(=O)c1c2c(nc3ccccc13)/C(=C\c1cccs1)CC2	/	/	2	/	-4	1	/	-6
CCc1cc(=O)[nH]c(SCC(=O)N2CCOCC2)n1	1	i	-3	/	0	3	/	0
COc1ccc(NC(=S)N2CCOCC2)c(OC)c1	-15	i	28	-10	3	4	-4	/
COc1ccc(CN(CCc2ccccc2)Cc2ccccc2)cc1OC	7	i	29	15	-9	-7	10	-4
O=C1CCC(=O)N1c1ccc(-c2nc3ccccc3s2)cc1	13	i	-124	0	-7	4	61*	-36	eIF4H inh retest=60*;PABP FP inh retest=20
CCOC(=O)c1ccccc1-n1c(C)cc(C2N=C(N)Nc3nc4ccccc4n32)c1C (configuration not stated)	-10	i	/	-12	0	-1	-4	-22
Cc1cccc(N(C)C(=O)c2cc(S(=O)(=O)N3CCc4ccccc43)cn2C)c1	10	i	1	3	-2	-6	-5	0
O=C(NCc1cccs1)c1cc(-c2ccccc2)on1	-13	i	/	-4	4	-2	-10	-12
CNc1ccc(Br)cc(C(=O)/C=C/c2ccc3c(c2)OCO3)c1=O	-1	i	/	48*	-2	8	92*	-26	eIF4H inh retest=88*;PABP FP inh retest=89*
Cc1csc(SC(C)C(=O)NC2CCCCC2C)n1 (configuration not stated)	-13	i	6	/	1	-1	/	/
COc1ccc(CNc2nc3nc4c(c(=O)n3[nH]2)CCC4)cc1	-22	i	/	-9	2	-2	-15	-18
CCN1CCN(c2nc(-c3ccccc3)nc3ccccc23)CC1	6	i	-13	8	-5	-3	14	-25
COc1ccc(CNc2nc(S(=O)(=O)c3ccccc3)c(Cl)s2)cc1OC	-6	i	35	24*	0	-30	54*	-2	eIF4H inh retest=92*;PABP FP inh retest=93*
Fc1ccc(C2CC(c3ccco3)n3ncnc3N2)cc1 (configuration not stated)	/	i	2	-15	0	5	-17	-15
CCn1cc(C2C(C(=O)Nc3ccc(Br)cn3)=C(C)NC3=C2C(=O)CCC3)c(C)n1 (configuration not stated)	0	i	-3	17	-1	4	3	/
S=C(NCc1ccccn1)Nc1ccc(Cl)cc1Cl	/	i	/	-5	2	3	3	-31
CCOC(=O)C1=C(C)NC(C)=C(C(=O)OCC)C1C(=O)OCC(=O)NCc1ccccc1	-10	/	1	/	3	0	/	/
C#CCCc1ccccc1/C=[N+](/C)[O-]	12	/	/	/	3	13	/	-16
O=P(O)(Cc1ccccc1)Cc1ccccc1	8	i	-4	-9	-5	-1	-3	-13
COc1ccc(CNc2ncnc3c2[nH]c2cc(OC)c(OC)cc23)cc1	6	i	-10	10	14	-4	-5	3
COc1ccccc1/C=N/N1CCN(c2ccc(Cl)cc2)CC1	1	i	1	-2	3	1	-3	-11
CC(SC1=NCCN1S(=O)(=O)c1ccc(F)cc1)c1ccccc1 (configuration not stated)	7	i	-38	40	-2	-4	-2	-4
Following part:
SMILES	CSC inhib	Rce1 inhib	HIV Env fusion	PABP FP inh	MT1-MMP act inh	MT1-MMP act inh RFP	eIF4H inh	Yeast UUG start	others
N#Cc1ccc(C(=O)N2CCN(S(=O)(=O)c3ccc(Br)s3)CC2)cc1	0	i	10	25	-2	-6	-4	/
COC(=O)C1=C(C)N(Cc2ccccc2)C(=NCc2ccc(OC)cc2)N[C@H]1c1cccc(F)c1	14	i	-33	58*	-6	-4	1	-16	eIF4H inh retest=-4;PABP FP inh retest=85*
CCc1ccc(CN2CCCC(CNS(=O)(=O)c3ccc(OC)cc3)C2)cc1 (configuration not stated)	/	i	11	-10	4	3	0	/
Cc1c(/C=N/Nc2nc3ccccc3[nH]2)c2ccccc2n1C	35	i	-172	-3	19	-18	12	-29
COC(=O)CN(c1ccc(C(C)C)cc1)S(=O)(=O)c1c(C)[nH]c(=O)[nH]c1=O	-21	i	11	-5	-2	2	-3	17
C=CCn1c(=NC(=O)CC)n(C)c2ccccc21	-4	i	-5	-9	1	1	0	/
CCCOC(=O)c1ccc(Oc2coc3c(CN(CC)CC)c(O)ccc3c2=O)cc1	7	i	/	13	8	-6	-3	/
COc1ccc(Cc2noc(CN(C)CC(O)c3ccccc3)n2)cc1OC (configuration not stated)	-5	i	-1	3	0	1	7	/
COc1ccc(CN2CCCN(C)CC2)c(OC)c1C	-9	/	-4	2	0	3	10	-2
COc1ccccc1C(=O)NC(=O)COC(=O)CNC(=O)c1ccccc1F	10	/	-4	/	-2	0	/	-13
CC(=O)Nc1cccc(NC(=O)C(=O)NCC(c2ccco2)N2CCc3ccccc32)c1 (configuration not stated)	10	i	-3	/	1	-5	/	1
COc1ccc(NC(=O)CCN2C(=O)c3ccccc3S2(=O)=O)c(OC)c1	/	i	-4	-4	2	4	1	/
O=C(O)C1CC(=O)N(CCOc2ccccc2)C1 (configuration not stated)	-23	i	/	-5	-1	9	-6	-9
O=[N+]([O-])c1ccc(S(=O)(=O)NNC(=S)NCCc2ccccc2)cc1	-5	i	-2	-7	1	3	-10	-3
CC1(C)C(=O)OC(c2ccccc2)C2(CCCC2)C1=O (configuration not stated)	/	/	-10	-5	-3	0	1	-16
CCOC(=O)C1=NN(c2ccccc2C)C2=NC(C)=C(C(=O)OC)C(c3cccc(OC)c3)N12 (configuration not stated)	-10	i	19	10	-3	1	-2	-1
CC(C)Cn1c(SCC(=O)NC2CC2)nc2ccc(Cl)cc2c1=O	/	/	-19	/	-1	3	/	-25
CCNC(=O)NC1(C(=O)Nc2ccc3c(c2)OCCO3)CCCCC1	-6	/	-36	4	0	0	-6	-12
C[C@@H]1CN([C@H](C)CO)C(=O)CCCn2cc(nn2)CO[C@H]1CN(C)C(=O)Nc1ccc(F)cc1	/	/	5	/	-2	0	/	7&-12
CC1(C)C2CCC1(CS(=O)(=O)NCc1ccc(C(=O)O)cc1)C(=O)C2 (configuration not stated)	2	i	/	2	0	2	6	-2
COc1ccc2[nH]c(=O)c(CN(Cc3ccccc3)C(=S)NCC3CCCO3)cc2c1 (configuration not stated)	0	i	25	1	-3	1	-6	/
CCO[C@H]1OC(C(=O)Nc2ccccc2)=C[C@@H](C)[C@@H]1CCCO	3	i	-17	4	3	5	-2	3
CCCn1c(SCC(=O)Nc2nnc(C(C)C)s2)nc2c1c(=O)n(C)c(=O)n2C	-2	i	41	-9	9	-11	-6	-6
CCOc1ccc(C(=O)NC(=S)Nc2ccccc2OC)cc1[N+](=O)[O-]	-5	i	-4	1	1	3	5	/
COc1ccc(CCNC(=O)CSc2nc3sc(C(=O)O)c(C)c3c(=O)[nH]2)cc1OC	-13	i	/	2	-1	3	3	-15

Ordered by heavy-atom count (largest number first): 5 of the compounds above.
SMILES	CSC inhib	Rce1 inhib	HIV Env fusion	PABP FP inh	MT1-MMP act inh	MT1-MMP act inh RFP	eIF4H inh	Yeast UUG start	others
COc1ccc(CCNC(=O)CSc2nc3sc(C(=O)O)c(C)c3c(=O)[nH]2)cc1OC	-13	i	/	2	-1	3	3	-15
CCCn1c(SCC(=O)Nc2nnc(C(C)C)s2)nc2c1c(=O)n(C)c(=O)n2C	-2	i	41	-9	9	-11	-6	-6
CCOc1ccc(C(=O)NC(=S)Nc2ccccc2OC)cc1[N+](=O)[O-]	-5	i	-4	1	1	3	5	/
N#Cc1ccc(C(=O)N2CCN(S(=O)(=O)c3ccc(Br)s3)CC2)cc1	0	i	10	25	-2	-6	-4	/
COc1ccc(CN2CCCN(C)CC2)c(OC)c1C	-9	/	-4	2	0	3	10	-2

The list continues:
SMILES	CSC inhib	Rce1 inhib	HIV Env fusion	PABP FP inh	MT1-MMP act inh	MT1-MMP act inh RFP	eIF4H inh	Yeast UUG start	others
COCCn1c(SCC(=O)Nc2cccc(C)n2)nnc1-c1ccco1	6	i	-7	-2	-2	0	8	-19
FC(F)(F)c1ccccc1Cc1c(-c2cccc(Br)c2)nc2ccc(Br)cn12	/	/	22	/	-7	-6	/	-12
CCOC(=O)C(CC1=CS(=O)(=O)c2ccc(Cl)cc21)(NC(C)=O)C(=O)OCC	/	/	5	/	-3	0	/	4
O=C(NCc1ccc2c(c1)OCO2)c1cc2ncc(Br)cn2n1	/	/	/	4	-3	2	67	-15	eIF4H inh retest=0;PABP FP inh retest=4
COc1cc(OC)c(OC)cc1/C=C(\C#N)C(=O)NCc1cccs1	-1	i	-12	4	-6	-4	-4	-17
O=C(O)c1cc(-c2ccc(/C=N/NC(=S)Nc3ccccc3)o2)ccc1Cl	-1	i	9	30	1	6	22	/
CCOC(=O)c1[nH]c(C)c(CN(CCc2ccccc2)C(=O)CCC(=O)O)c1C	-6	i	12	4	-1	1	3	3
Cc1ccc(-c2cc(C(=O)Nc3ccccn3)c3ccccc3n2)o1	8	i	-2	-2	-8	3	46	/
O=C(CCC(=O)N1CCCC1)Nc1ccc([N+](=O)[O-])cc1	29	i	3	-7	1	4	-7	-2
CCN1/C(=C2\SC(=S)N(Cc3ccccc3)C2=O)Sc2ccccc21	-9	i	-9	2	-4	-6	5	/
COc1cc(-c2cnc3c(NC=O)cc(-c4ccsc4)cn23)cc(OC)c1OC	/	/	-94	/	-3	-8	/	-20
O=S(=O)(c1cccc2cccnc12)N1CCN(c2ccc(F)cc2)CC1	-14	i	8	-3	1	1	-1	/
O=C(NCC1CCCCC1)c1cc2ccccc2cc1O	83*	i	3	4	4	-13	-19	-9

In the list so far, 5 have a COOH group.
SMILES	CSC inhib	Rce1 inhib	HIV Env fusion	PABP FP inh	MT1-MMP act inh	MT1-MMP act inh RFP	eIF4H inh	Yeast UUG start	others
O=C(O)C1CC(=O)N(CCOc2ccccc2)C1 (configuration not stated)	-23	i	/	-5	-1	9	-6	-9
CC1(C)C2CCC1(CS(=O)(=O)NCc1ccc(C(=O)O)cc1)C(=O)C2 (configuration not stated)	2	i	/	2	0	2	6	-2
COc1ccc(CCNC(=O)CSc2nc3sc(C(=O)O)c(C)c3c(=O)[nH]2)cc1OC	-13	i	/	2	-1	3	3	-15
O=C(O)c1cc(-c2ccc(/C=N/NC(=S)Nc3ccccc3)o2)ccc1Cl	-1	i	9	30	1	6	22	/
CCOC(=O)c1[nH]c(C)c(CN(CCc2ccccc2)C(=O)CCC(=O)O)c1C	-6	i	12	4	-1	1	3	3

Some of the compounds tested; the hit share may differ from the screen's.
